Screening results: PubChem, Johns Hopkins Ion Channel Center
KCNQ2 enhance: KCNQ2 (rat) channel potentiation. CHO-K1 KCNQ2, FluxOR thallium flux fluorescence; active compounds read high. hit rate 0.54% among 310,000. AID 2239. O88943. B-score at 10 µM;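 active = fluorescence ratio B-score at least 3 SD of library B-scores, with initial fluorescence B-score within 3 SD, cut at about 5.3 in these data; same plate scores as AID 2156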;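 also: B-score of peak minus minimum over baseline fluorescence ratio after K+ and Tl+ stimulus; positive B-score means potentiation of KCNQ2 with more thallium influx and brighter signal; only the inactives scoring about 0 or higher are listed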
Target sequence (O88943 whole entry, looked up): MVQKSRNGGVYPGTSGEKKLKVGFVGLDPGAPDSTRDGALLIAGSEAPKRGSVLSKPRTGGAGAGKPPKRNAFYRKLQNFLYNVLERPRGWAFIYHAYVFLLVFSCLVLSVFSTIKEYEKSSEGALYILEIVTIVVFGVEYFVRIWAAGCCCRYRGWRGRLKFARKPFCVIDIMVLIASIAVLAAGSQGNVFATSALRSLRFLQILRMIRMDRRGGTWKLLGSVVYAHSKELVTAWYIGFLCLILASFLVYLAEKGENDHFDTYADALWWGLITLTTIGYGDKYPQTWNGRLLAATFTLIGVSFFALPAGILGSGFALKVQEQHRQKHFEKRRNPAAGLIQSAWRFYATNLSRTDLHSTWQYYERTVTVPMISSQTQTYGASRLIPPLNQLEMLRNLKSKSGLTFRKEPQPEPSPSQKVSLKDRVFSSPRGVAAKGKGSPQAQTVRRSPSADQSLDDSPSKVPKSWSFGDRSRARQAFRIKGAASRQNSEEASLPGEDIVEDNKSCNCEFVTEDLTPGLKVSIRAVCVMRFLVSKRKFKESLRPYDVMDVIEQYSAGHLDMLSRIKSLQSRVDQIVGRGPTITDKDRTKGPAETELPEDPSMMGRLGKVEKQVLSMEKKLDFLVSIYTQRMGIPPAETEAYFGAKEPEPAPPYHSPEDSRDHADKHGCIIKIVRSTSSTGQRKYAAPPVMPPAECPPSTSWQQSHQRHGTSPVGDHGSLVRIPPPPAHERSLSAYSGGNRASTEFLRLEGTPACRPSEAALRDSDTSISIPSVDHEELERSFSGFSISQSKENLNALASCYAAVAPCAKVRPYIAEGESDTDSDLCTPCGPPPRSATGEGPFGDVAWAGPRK
KCNQ2 enhance baseline: further read-out of KCNQ2 enhance, marked with its call; B-score; compound at 10 µM; measured here: initial fluorescence intensity artifact check;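 brightness before thallium and not channel activity; 0 = typical well and far values either way flag optical interference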
* marks the source's active call; other numbers are inactive results. This is a subset; rates above refer to the full screens.

SMILES | KCNQ2 enhance | KCNQ2 enhance baseline
Cc1ccc(C(C(=O)NCc2ccco2)N(C(=O)Cc2cccs2)c2cccnc2)cc1 (stereo not given) | 0.6 | -0.63
CCOc1ccc(-c2ccc(SCC)nn2)cc1 | 0.07 | -0.89
COC1CCCN(C(=O)c2cccc(OC3CCN(S(=O)(=O)N(C)C)CC3)c2)C1 (stereo not given) | 0.35 | -0.04
Cc1ccc(C2=NS(=O)(=O)N(C)C(C(=O)NCc3ccc(F)cc3)=C2)cc1 | 0.07 | -0.83
Cc1onc(-c2c(F)cccc2Cl)c1C(=O)OCC(=O)c1c[nH]c2ccccc12 | 6.4* | -0.73*
CCOc1ccc(N=C2NC(=O)S/C2=C\c2ccc(Cl)cc2)cc1 | 0.47 | 1.6
C=C(C)c1cccc(C(C)(C)NC(=O)Nc2cc(C)ccc2OC)c1 | 1.9 | -0.52
Cc1nn(C)c(Cl)c1C(=O)NCC(=O)Nc1ccc(C(C)C)cc1 | 1.1 | 0.09
O=C(c1cccc(S(=O)(=O)N2CCCC2)c1)c1cccc(S(=O)(=O)N2CCCC2)c1 | 0.5 | 0.84
CCOc1ccc2nc(SCC(=O)Nc3ncccn3)[nH]c2c1 | 1.2 | -1.4
O=C(Nc1ccc(Oc2ccccc2)cc1)c1cnc2n(c1=O)CCS2 | 1.8 | 1.2
COc1ccc(CNC(=O)C2CCN(S(=O)(=O)c3cccc4nsnc34)CC2)cc1 | 1 | 0.22
COC(=O)c1ccc(CN(C)S(=O)(=O)c2ccc(C)cc2)o1 | 0.09 | -1.3
COc1ccccc1N1CCN(C(CNC(=O)C2CCCCC2)c2cccnc2)CC1 (stereo not given) | 1.3 | -1.3
CC#CC[N+](C)(C)CCCCCC | 1.6 | 0.01
N#Cc1ccc(-c2ccc(OCC3CNC(=O)O3)cc2)cc1 (stereo not given) | 1.6 | 0.36
CCC(C)c1ccc(O)c(NC(=O)c2cncc(Br)c2)c1 (stereo not given) | 2.5 | -0.13
Cc1ccc2c(Cl)c(C(=O)NCc3cccnc3)sc2c1 | 0.7 | 4
CC1CN(c2ccc([N+](=O)[O-])cn2)CC(C)O1 (stereo not given) | 0.15 | 0.6
Cc1cc(C)nc(NC(=O)/C=C/c2ccc(Cl)cc2)n1 | 0.74 | -1.6
CCC(=O)N(C)C(c1ccccc1Cl)c1nnnn1-c1c(C)cccc1C (stereo not given) | 0.36 | -0.69
Cc1ccc(-c2noc(CCC(=O)Nc3ccccc3N3CCN(C)CC3)n2)cc1 | 0.9 | 1.1
Cc1cccc(C(=O)NNC(=O)c2ccc(F)cc2)c1 | 1.3 | -2.4
Cc1cc(C)nc(SCC(=O)c2ccc(O)cc2O)n1 | 0.64 | 1.2
Cc1c(C(=O)NC(=S)Nc2ccc(NC(=O)c3cccs3)cc2)oc2ccccc12 | 0.54 | 0.28

Profiles, quoted from the list:
`Cc1cc(C)nc(SCC(=O)c2ccc(O)cc2O)n1` reads KCNQ2 enhance = 0.64; KCNQ2 enhance baseline = 1.2
`CCOc1ccc(-c2ccc(SCC)nn2)cc1` reads KCNQ2 enhance = 0.07; KCNQ2 enhance baseline = -0.89
`O=C(Nc1ccc(Oc2ccccc2)cc1)c1cnc2n(c1=O)CCS2` reads KCNQ2 enhance = 1.8; KCNQ2 enhance baseline = 1.2

Next part
SMILES | KCNQ2 enhance | KCNQ2 enhance baseline
O=C(Cn1cnc2c(nnn2Cc2ccc(Cl)cc2)c1=O)N1CCCc2ccccc21 | 0.94 | -1.2
CCC(C)N1C(=O)N(C)C2NC(=O)NC21 (stereo not given) | 0.04 | 1.1
CCCCCc1cc(=O)oc2c(C(CCN3CCCC3)c3ccc(N(C)C)cc3)c(OC)cc(OC)c12 (stereo not given) | 0.32 | -1.1
COCC(=O)N1CCc2ccc(NC(=O)c3ccc(C(F)(F)F)cc3)cc2C1 | 1.6 | 0
CCc1ccc(C(=O)CSC2=C(C#N)C(c3ccco3)C(C(C)=O)=C(C)N2)cc1 (stereo not given) | 9.8* | -0.85*
O=C(NCc1n[nH]c(=S)n1-c1cccc(Cl)c1)c1ccc(S(=O)(=O)N2CCCC2)cc1 | 0.51 | 0.88
CCN(CC)c1ccc(N=Nc2nn(C)c(C)c2[N+](=O)[O-])cc1 | 0.7 | 0.04
CN(C)CCSc1nnc2sc3ccccc3n12 | 1.3 | -0.7
CCOC(=O)C1(Cc2cccc(OC)c2)CCN(C(C)COC)CC1 (stereo not given) | 0.64 | -1.2
Cc1ccc(C)[n+](CC(=O)c2ccc(-c3ccccc3)cc2)c1 | 2.5 | -0.66
COc1ccc(NS(=O)(=O)c2cccc(NC(=O)NC3CCCCC3)c2)cc1 | 1 | -0.01
CC1(C)O[C@@H]2[C@@H](CO[C@@]3(COS(N)(=O)=O)OC(C)(C)O[C@@H]23)O1 | 0.69 | -0.1
Cc1cc(OCC(=O)N2CCC[C@@H]2C(=O)O)c2c(C)c(C)c(=O)oc2c1 | 0.33 | 0.02
CCC(C)NC(=O)c1ccc(CN2CCc3ccccc3C2)cc1 (stereo not given) | 0.17 | 1.1
CCOC(=O)C1=C(C)NC(=O)NC1c1ccc(Cl)cc1Cl (stereo not given) | 0.15 | -1.7
COc1ccc(CNC(=O)COC(=O)CCCOc2ccc(Cl)cc2Cl)cc1 | 0.2 | -0.61
Cc1cc(C)n(-c2nc(NCC(C)O)c3c4c(sc3n2)CCCC4)n1 (stereo not given) | 1.1 | 0.09
CCOc1ccccc1C1C(C#N)=C(N)Oc2cc(C)n(C)c(=O)c21 (stereo not given) | 1 | -0.56
Cc1ccc(C(=O)N/N=C/c2cccc(OC(=O)/C=C/c3ccco3)c2)cn1 | 0.48 | 0.72
C=CCn1c(O)c(N=NC(=S)Nc2cccc(C)c2)c2ccccc21 | 1.9 | -0.29
Cc1ccc(S(=O)(=O)NNC(=O)c2ccc(F)cc2)cc1 | 0.61 | 0.95
CCOC(=O)c1cccc(N2C(=O)Nc3ccccc3N2O)c1 | 1.5 | 1.7
Cc1cc(/C=C2/C(=N)N3C(=NC2=O)SN=C3S(C)(=O)=O)c(C)n1-c1ccccc1 | 0.86 | -2.3
Cc1csc(NC(=O)CSc2nnc(-c3ccoc3C)o2)n1 | 0.09 | 0.61
CC(=O)Nc1cc(-c2nn3c(C)nnc3s2)ccc1C | 1.4 | -1

(more compounds)
SMILES | KCNQ2 enhance | KCNQ2 enhance baseline
Cc1cc(C)c(S(=O)(=O)c2cccc(Br)c2C)c(=O)[nH]1 | 0.8 | -0.55
O=C(NCc1ccc(F)cc1)C1CCCN(C(=O)Nc2ccccc2)C1 (stereo not given) | 0.49 | 0.06
CCOC(=O)C1(Cc2cccc(OC)c2)CCN(Cc2cnc(N)nc2)CC1 | 0.27 | -1.1
CC1C(C#N)=C(N)OC2=C1C(=O)CC(c1ccccc1)C2 (stereo not given) | 1.9 | -0.13
O=C(CN1CCOc2ccccc21)N1CCN(c2cccc(Cl)c2)CC1 | 1.2 | -1.4
O=C(COc1ccccc1O)NNc1ccccc1 | 1 | 0.29
Cc1cccc(NC(=O)c2sc(NC(=O)COc3ccccc3)c(C#N)c2C)c1C | 2 | -1.4
COC(=O)c1ccc(C(c2c(C)n(C)n(-c3ccccc3)c2=O)c2c(C)n(C)n(-c3ccccc3)c2=O)cc1 | 1.2 | -1.2
O=C(NCc1ccc(Cl)cc1)C1CCC(CNc2c(N3CCCC3)c(=O)c2=O)CC1 (stereo not given) | 1.8 | 2.2
CC1CCCN(CCCNC(=O)CN2C(=O)COc3ccc(S(=O)(=O)N4CCOCC4)cc32)C1 (stereo not given) | 0.66 | 1.3
O=C(NCCCN1CCCC1=O)[C@H](CSCc1ccccc1)N1Cc2ccccc2C1=O | 2.1 | 0.27
COc1ccc2oc(=O)c(/C(C)=N/Nc3nc(-c4cc(C)ccc4C)cs3)cc2c1 | 0.31 | -0.43
CCCSC(=S)NC1CCS(=O)(=O)C1 (stereo not given) | 0.3 | 0.39
O=C(O)c1ccccc1CSc1nc2ccccc2s1 | 1.2 | -0.17
Nc1n[nH]c(C2CC2)c1N=Nc1ccc(Cl)c(Cl)c1 | 0.13 | -2.3
O=C(NCc1cccnc1)c1ccc(S(=O)(=O)N2CCOCC2)cc1 | 0.18 | -0.1
COC(=O)c1cccc(NC(=O)C2COc3ccccc3O2)c1 (stereo not given) | 0.03 | -0.82
CC(=O)c1cccc(NC(=O)CNC(=O)Cc2ccccc2)c1 | 1 | 1.4
C#CCOCCOCCOCCNc1nc(N2CCOCC2)nc(N2CCN(C(=O)[C@H]([C@@H](C)CC)n3cc(CCCN=C(N)N)nn3)CC2)n1 | 0.22 | 0.64
COc1ccc(-n2c(Cc3cccn3C)nnc2SCC(=O)Nc2cccc(NC(C)=O)c2)cc1 | 0.76 | -0.19
CC1CCCCC1Nc1ncnc2sccc12 (stereo not given) | 1.2 | -0.68
COc1ccc(Cl)cc1NC(=O)c1cc(-c2ccccc2)on1 | 2.2 | -2
NC(=O)C(c1ccc(Sc2ccccc2)nn1)c1ccc(Cl)cc1Cl (stereo not given) | 1.2 | 0.97
N#C/C(=C\c1cn(CCOc2ccccc2F)c2ccccc12)C(=O)NCc1cccs1 | 0.49 | -0.39
Cc1cc(C)c(C)c(S(=O)(=O)N2CCCN(C)CC2)c1C | 0.58 | -1.5

(continued)
SMILES | KCNQ2 enhance | KCNQ2 enhance baseline
CC(Cc1ccccc1)N/C=C1\CC(=O)NC1=O (stereo not given) | 0.14 | 0.12
CC(C)(O)c1[nH]c2ccc(C(F)(F)F)cc2c1C(C)(C)O | 0.01 | 0.4
COc1ccccc1C(=O)NC(CCSC)C(=O)NNC(=O)c1csc(N2CCOCC2)n1 (stereo not given) | 0.73 | 0.43
CCCN(CCC)CC(=O)NCC1(c2ccccc2)CCOCC1 | 0.81 | -0.04
CCN1C(=O)/C(=C\c2ccco2)C(C(=O)OC)=C1C | 0.9 | -0.98
Cc1c(C(=O)O)cccc1N1C(=O)Nc2ccccc2N1O | 0.1 | 0.51
CC(=O)Nc1ccc(Nc2nc3c(S(=O)(=O)c4ccc(C)c(C)c4)nnn3c3ccccc23)cc1 | 0.07 | -1.5
O=C(Nc1ccc2cn[nH]c2c1)c1c(Cl)cccc1Cl | 0.13 | -0.95
CC(=O)/C(=N/Nc1cccc(C)c1)N1CCOCC1 | 0.22 | 0.01
COc1ccc(NC(=O)C2CCCN(C(=O)NC3CCCCC3)C2)cc1OC (stereo not given) | 0.57 | 1.9
COc1ccc(C(=O)NCC(=O)N/N=C/c2ccc([N+](=O)[O-])s2)cc1OC | 0.68 | -1.9
C#CCOc1ccc(/C=N/O)cc1Cl | 0.03 | 1.8
COC(=O)c1ccc(NC(=O)Cn2cnc3c(nnn3-c3cccc(OC)c3)c2=O)cc1 | 1.8 | 0.04
CCN(CC)S(=O)(=O)c1cccc(C(=O)N2CC(O)CC2C(=O)O)c1 (stereo not given) | 0.02 | 0.76
O=C1COc2ccc(C(=O)NC3CC3)cc2N1 | 0.84 | 1.3
COc1cccc2cc(C(=O)NCc3ccco3)c(=O)oc12 | 0.29 | 0.03
Cc1cc(Nc2ccc(C(=O)O)cc2)nc(N)n1 | 1.6 | -0.02
Cc1ccc2cccc(S(=O)(=O)NC3CCS(=O)(=O)C3)c2n1 (stereo not given) | 0.86 | 0.04
Cc1ccc2cc(CCNS(=O)(=O)c3ccc(Br)cc3)c(=O)[nH]c2c1C | 0.35 | 1
Cc1cc(-c2nc(C)c(C(=O)NN)s2)no1 | 0.6 | 0.55
COc1ccc(/C=N/NC(=O)C(=O)N2CCCCCC2)cc1[N+](=O)[O-] | 0.63 | -1.4
CN(CC(=O)Nc1cccc(F)c1)CC(=O)Nc1ccccc1[N+](=O)[O-] | 2 | -0.02
O=C(CC(=O)N/N=C\c1ccc([N+](=O)[O-])cc1)NCCc1ccccc1 | 0.04 | -0.03
C/C=C/C(=O)Nc1nnc(C2CCCCC2)s1 | 1.1 | -0.3
Cn1c(CNc2nc(-c3ccccc3)cs2)nnc1SCC(=O)c1ccccc1 | 0.31 | -0.08

Some of the entries so far, with values under each structure.
Order of results – KCNQ2 enhance | KCNQ2 enhance baseline
COc1ccc(NC(=O)C2CCCN(C(=O)NC3CCCCC3)C2)cc1OC (stereo not given)
 : 0.57 | 1.9
COc1ccc(C(=O)NCC(=O)N/N=C/c2ccc([N+](=O)[O-])s2)cc1OC
 : 0.68 | -1.9
C#CCOc1ccc(/C=N/O)cc1Cl
 : 0.03 | 1.8
COC(=O)c1ccc(NC(=O)Cn2cnc3c(nnn3-c3cccc(OC)c3)c2=O)cc1
 : 1.8 | 0.04
CCN(CC)S(=O)(=O)c1cccc(C(=O)N2CC(O)CC2C(=O)O)c1 (stereo not given)
 : 0.02 | 0.76
O=C1COc2ccc(C(=O)NC3CC3)cc2N1
 : 0.84 | 1.3
COc1cccc2cc(C(=O)NCc3ccco3)c(=O)oc12
 : 0.29 | 0.03

Later entries.
SMILES | KCNQ2 enhance | KCNQ2 enhance baseline
Cc1ccc(SCC(=O)NC(=O)c2ccc(S(=O)(=O)N(C)C)cc2)cc1C | 0.75 | 1.2
COC(=O)c1ccc(OCC(=O)NC2CCCCCC2)cc1 | 1.8 | 0.23
Cc1ccnc(NS(=O)(=O)c2ccc(NC(=O)c3ccc4c(c3)OCCO4)cc2)n1 | 0.13 | 1.2
CCOc1cc(-c2nc(-c3ccc(C)nc3OC)no2)cc(OCC)c1OCC | 0.61 | -0.48
NC(=O)[C@@H]1CCOc2c(I)cc([N+](=O)[O-])cc2C(=O)N[C@@H](CO)C(=O)NCC(=O)N1 | 0.41 | 2.9
CCCOc1ccc(C(=O)Nc2ccc(S(=O)(=O)Nc3onc(C)c3C)cc2)cc1 | 0.85 | -0.18
O=C(NCc1ccccc1)c1ccccc1CO | 0.71 | 0.15
